# H5N1 antiviral = antiviral screen in MDCK cells, H5N1 avian flu; cytopathic effect, luminescence, 72 h; hits give high values; no value below 0 was filed and about half of the inactive calls have no number; reference of the scale not given here; inhibition, % at 50 µM; hit rate 0.07% among 96,000; AID 740; in the data active = inhibition above about 25%
# * marks the source's active call; other numbers are inactive results; i = inactive. The list is partial; the hit share may differ from the screen's.
SMILES,H5N1 antiviral
CCn1c(SCC(=O)Nc2nc(C)c(C(=O)OC)s2)nnc1C(C)C,0.5
O=C(CSc1nnc(Cn2c(=O)sc3ccccc32)n1-c1ccccc1)NCc1ccco1,1.7
CCOc1ccc(CCN2C(=O)CCC2(C)C(=O)NC(C)CC)cc1OCC (configuration not stated),i
CCOC(=O)N1CCN(CC(O)COC2CC(C)CC(C)(C)C2)CC1 (configuration not stated),i
COc1ccc(C)c(S(=O)(=O)Nc2ccc(OCC(=O)O)cc2)c1,1.8
O=C(CSc1ncn(-c2ccccc2)n1)Nc1ccc(Br)cn1,0.1
Cn1c(SCC(=O)n2c3c(c4ccccc42)CCCC3)nnc1-c1ccccc1,1.6
CCNC(=O)NC(=O)CSc1nc2ccccc2n1CC(C)C,0.0
Cc1cccn2cc(-c3ccc(F)cc3)nc12,i
CC(O)C(O)C(O)C(O)C1NCCS1 (configuration not stated),i
O=C(O)Cc1ccc(NC(=O)c2cccs2)cc1,0.7
CCOC(=O)N1CCN(C(=O)CN(c2cccc(C)c2)S(=O)(=O)c2ccc(C)cc2)CC1,i
C=CCSc1nc2ccccc2c2nc(-c3ccccc3)nn12,i
CCOC(=O)Cc1csc(NC(=O)c2cccc(N3C(=O)CCC3=O)c2)n1,2.0
COc1ccc(NC(=O)C(NC(=O)c2ccccc2)C(C)C)cc1 (configuration not stated),0.4
CCOC(=O)c1c(-c2ccc(C)o2)csc1NC(=O)CSc1nnnn1-c1ccccc1,0.7
CCOC(=O)c1ccc(N/C=C/C(=O)c2ccc(OC)c(OC)c2)cc1,i
O=c1cc(-c2ccco2)oc2c1ccc1ccccc12,6.3
CCOC(=O)c1oc2ccccc2c1NC(=O)c1cccc(OC)c1,1.0
c1ccc(CCc2nn3c(-c4ccncc4)nnc3s2)cc1,3.6
CCC(CC)c1nnc(NC(=O)c2ccc(N3CCCC3=O)cc2)s1,i
CCN1CCN(C(=O)c2ccc3c(=O)n(Cc4ccccc4OC)c(=S)[nH]c3c2)CC1,0.8
CC(C(=O)OCC(=O)Nc1ccc2c(c1)OCO2)N1C(=O)c2ccccc2C1=O (configuration not stated),i
CCOC(=O)c1[nH]c2c(c1C)C(=O)CC(c1ccco1)C2 (configuration not stated),0.0
COc1cc(C2NC(=O)NC(C)=C2C(=O)NCc2ccccc2)c(Cl)cc1O (configuration not stated),i

# Reformatted as labelled records: 2 of the compounds above.
C=CCSc1nc2ccccc2c2nc(-c3ccccc3)nn12
  H5N1 antiviral = i

CCOC(=O)Cc1csc(NC(=O)c2cccc(N3C(=O)CCC3=O)c2)n1
  H5N1 antiviral = 2.0

# Additional results.
SMILES,H5N1 antiviral
N#Cc1ccccc1Sc1ccccc1N,1.4
CC1=C(C)/C(=N\OS(=O)(=O)c2ccccc2)C=CC1=O,i
O=C(c1ccc(Br)o1)N(Cc1ccccc1)c1ccccn1,2.3
O=C(O)c1cccc(COc2ccccc2Cl)c1,0.2
COc1ccc(N/C(C)=C2/C(=O)C(=O)N(CCO)C2c2ccc([N+](=O)[O-])cc2)cc1 (configuration not stated),1.4
CCn1c(SCC(=O)c2[nH]c(C)c(C(C)=O)c2C)nnc1-c1ccncc1,0.6
COCCn1c(=S)[nH]c2cc(C(=O)NCCc3ccc(OC)c(OC)c3)ccc2c1=O,i
COc1ccccc1C(=O)NCCNC(=O)c1ccco1,0.6
Cn1c(=O)c(C(=O)CN2CCOCC2)c(N)n(Cc2ccccc2)c1=O,i
COc1ccc(-n2c(Cc3cccn3C)nnc2SCC(=O)Nc2cc(Cl)ccc2OC)cc1,3.3
C=CCn1c(-c2cccs2)nc2ccccc21,0.2
COc1ccccc1Nc1nc(-c2sc(NC(=O)CC(C)C)nc2C)cs1,i
COC(=O)CCCc1nc2ccccc2s1,i
OC1(c2ccc(OC(F)F)cc2)CSC(=Nc2cccnc2)N1C1CC1 (configuration not stated),0.8
CCCn1nnnc1NC(=O)CSc1ccc(Cl)cc1,i
Cc1ccc(NC(=O)CCNS(=O)(=O)c2cccc3nonc23)cc1,0.9
Cc1ccc(NC(=O)/C=C/c2cccs2)c([N+](=O)[O-])c1,i
COc1ccc(C(C)=O)cc1CSc1nc2ccccc2o1,i
Cc1cc(C)n2nc(C(=O)OCC(=O)Nc3ccc4c(c3)OC(F)(F)O4)nc2n1,i
CCOC(=O)c1c(NC(C)=O)sc2c(O)c(CN3CCN(CC)CC3)ccc12,i
Fc1ccc(-c2ccc(-c3nn4c(-c5ccco5)nnc4s3)o2)cc1,0.3
Cc1ccc(CNC(=O)Nc2ccccc2)cc1,0.6
CCOc1ccc2c(C)c(C(=O)O)oc2c1OCC,0.1
CC(C)(C)C(=O)Nc1ccccc1N1CCN(C(=O)c2ccc(Cl)cc2)CC1,i
Cc1cc2nc(-c3ccc(SCC(=O)N4CCc5ccccc54)nc3)[nH]c2cc1C,i
# Next entries.
SMILES,H5N1 antiviral
CCOc1ccc(-n2c(=O)c3c4c(sc3n(CC(=O)NCc3ccco3)c2=O)CCC4)cc1,i
O=C(Cc1cccc2ccccc12)OCn1nnc2ccccc2c1=O,2.0
CC(C)[C@H](Nc1nc(-c2ccccc2)nc2c1oc1ccccc12)C(=O)O,0.4
CCOC(=O)CNC(=O)C(CC(C)C)NC(=O)C1CCCCC1 (configuration not stated),1.1
C=CCN1C(=O)C2(C(C(=O)OCC)=C(N)Oc3c2c(=O)oc2ccccc32)c2ccccc21 (configuration not stated),i
COc1ccc(NC(=O)C2CCCN2C(=O)NCc2ccccc2)c(OC)c1 (configuration not stated),i
COc1ccc(-c2nnc(SC3CCOC3=O)n2C2CCCCC2)cc1OC (configuration not stated),i
COc1ccc(Br)cc1C(=O)Nc1cccc(C)c1,1.0
COC(=O)c1cc(NC(=O)CSc2nnc(CN3CCOCC3)n2C)ccc1Cl,i
COC(=O)c1cc2ccsc2n1Cc1cc(=O)n2ccccc2n1,i
CC(C)Sc1nc2c(c(=O)[nH]1)C(c1cccs1)C1=C(CC(C)(C)CC1=O)N2 (configuration not stated),2.4
Fc1ccc2nc(Nc3nc4c(s3)CCCC4)sc2c1,i
CCn1c(-c2ccccc2O)n[nH]c1=S,i
CCOC(=O)c1ccc(NC(=O)CSc2nc(SC)ns2)cc1,0.6
COc1ccc(S(=O)(=O)NC(CC(=O)NCCc2ccc(OC)c(OC)c2)c2ccco2)cc1 (configuration not stated),i
Cc1ccc(-c2ccc(CCC(=O)O)n2-c2cccc(O)c2)cc1,i
CC(C)COc1ccc(C(=O)CCN2CCCCC2)cc1,i
CCCCn1c(NCCC)nc2c1c(=O)[nH]c(=O)n2C,0.8
COc1ccc(NC(=O)CSc2nnc(COc3ccccc3)n2Cc2ccco2)cc1OC,3.1
CCOc1ccccc1CNC(=O)CCNC(=O)Cn1ccc2ccccc2c1=O,i
CCC(C)N1CC23C=CC(O2)C(C(=O)OC)C3C1=O (configuration not stated),i
Cc1ccnc(NC(=S)NC(=O)c2ccco2)c1,1.1
CCc1ccccc1OCCOc1ccc(C)cc1OC,0.8
CCn1cc(S(=O)(=O)CC(=O)Nc2ccc3c(c2)OCCO3)c2ccccc21,0.1
Cc1cc(NS(=O)(=O)c2ccc(NC(=O)COc3ccc(Cl)cc3)cc2)no1,0.4
# Other results
SMILES,H5N1 antiviral
O=C(CN(C1CCCCC1)S(=O)(=O)c1ccc(Cl)cc1)NCCCO,i
Cc1c(NC2=C(Cl)C(=O)N(c3ccccc3)C2=O)c(=O)n(-c2ccccc2)n1C,i
COC(C)(C)[C@]12CC(O)(C(C)C)ON1[C@H]1CCCCC1N2O (some centres not stated),0.6
Cc1ccc(CN2C(=O)c3ccccc3C2C(=O)NCC2CCCO2)cc1 (configuration not stated),i
O=C1CC(c2ccccc2)n2ncnc2N1 (configuration not stated),i
O=C(CSc1nnc(-c2ccc(OC(F)F)cc2)o1)NC(=O)NCc1ccco1,i
CCOC(=O)C1CCN(CC(=O)Nc2cc(C)nn2-c2nc3ccccc3s2)CC1,i
COCCNC(=O)CN(C(=O)CCC(=O)Nc1cc(C)on1)c1cccc(C)c1C,0.6
O=C(NCCN1CCOCC1)c1cc2ccccc2[nH]1,0.1
CCCS(=O)(=O)N1CCCC(C(=O)N2CCC3(CC2)OCCO3)C1 (configuration not stated),0.2
O=C(Nc1ccc(Cl)c(Cl)c1)N1CCC(N2CCCCC2)CC1,i
CCOC(=O)c1cnc(SCC(=O)NCc2ccco2)nc1N,4.6
CC(C)NC(=O)CC1Nc2c3ccccc3nc(=S)n2C1=O (configuration not stated),i
Cc1cc(C)cc(N2CCCn3c2nc2c3c(=O)n(CCN3CCOCC3)c(=O)n2C)c1,i
COc1cc2nc(NC(=O)c3ccc(Cl)cc3)[nH]c(=O)c2cc1OC,i
CCCCC(OC(=O)c1cc2occc2n1C)C(=O)NCC1CCCO1 (configuration not stated),1.1
CN=C1c2c(-c3ccccc3)c3cc(OC)ccc3n2CCN1C,i
CC(=O)N1CN(Cc2ccccn2)Cc2c1sc1c2CCCC1,4.4
CN(C)S(=O)(=O)c1ccc2nc(NC(=O)c3cccs3)sc2c1,2.0
COc1ccc2nc(NC(=O)c3cccc(S(=O)(=O)N4CCOCC4)c3)sc2c1,i
CC12CN3CCN(CC(C3)C1(O)CN1CCCCC1)C2 (configuration not stated),5.2
O=C(Nc1cccc2ccccc12)c1cnccn1,0.4
CCOc1ccc(NC(=O)CCN2CCCCC2)cc1,0.8
C=C(C)C1CCC(C)=C1COC(=O)Nc1ccccc1 (configuration not stated),0.8
O=C(NNC(=S)NC(=O)c1cccnc1)c1ccccc1,i

# Looked up above:
# Cc1cc(NS(=O)(=O)c2ccc(NC(=O)COc3ccc(Cl)cc3)cc2)no1 – H5N1 antiviral = 0.4
# CCCCC(OC(=O)c1cc2occc2n1C)C(=O)NCC1CCCO1 (configuration not stated) – H5N1 antiviral = 1.1

# Following part
SMILES,H5N1 antiviral
CCOC(=O)C1(C)/C(=N/Nc2ccccc2)C(=O)C(=O)N1c1ccccc1 (configuration not stated),i
CCCCn1c(SCC(=O)Nc2ccc(OC)cc2)nc2ccc(N3CCOCC3)cc2c1=O,0.9
O=C(NNC(=O)C1CC1)c1ccc(-c2ccccc2)cc1,0.3
Cc1ccnc2nc(C(=O)OCCOc3ccccc3)nn12,0.5
Cn1c(=O)n(CCC(=O)O)c2ccccc21,i
COc1ccc2cnn(CCOc3ccccc3)c(=O)c2c1OC,i
COc1ccc(CC(=O)Nc2ccc(-c3noc(-c4cc(OC)c(OC)c(OC)c4)n3)cc2)cc1,0.0
COCCn1nnnc1C(C(C)C)N1CCN(C(=O)c2ccco2)CC1 (configuration not stated),0.9
COc1cc(/C=C(\C#N)c2nc3ccccc3[nH]2)cc(Br)c1OCc1ccc(F)cc1,1.6
Cc1nc(CC(=O)c2ccc(O)cc2O)cs1,0.9
NC(=O)C1(N2CCCCC2)CCN(C(=O)CCCn2c(=O)[nH]c3ccsc3c2=O)CC1,0.5
O=S(=O)(Nc1ccc(-c2nc3cccnc3s2)cc1)c1ccc(Cl)s1,8.1
COc1ccc2c(C(=O)CN(C)C3CCCCC3)c[nH]c2c1,i
O=C(Nc1cc(Cl)cc(Cl)c1)c1cccc(OC(F)F)c1,0.4
O=C(CN(Cc1ccccc1Cl)C(=O)c1ccc(CN2CCOCC2)o1)NCc1ccccc1,i
Cc1cccc(C(=O)N2c3ccccc3C(=O)OC2c2ccc3c(c2)OCO3)c1 (configuration not stated),i
Cc1ccc2nc(NCc3ccccc3)[nH]c2c1,i
N#CC1=C(N)NC(SCC(=O)Nc2ccccc2)=C(C#N)C12CCCC2,i
O=C(COC(=O)Cc1ccccc1)NC12CC3CC(CC(C3)C1)C2,0.3
CCOc1ccccc1C1CC(=O)Nc2cc3c(cc21)OCO3 (configuration not stated),0.5
CCN1CCN(P2(=O)C=C(c3ccccc3)OC(c3ccccc3)=C2)CC1,0.8
CCOC(=O)c1cnc2cc(C)nn2c1C,0.4
Cc1nn(CCC#N)c(NC(=O)c2ccc(Cl)cc2)c1P(=O)(Nc1ccc([N+](=O)[O-])cc1)N1CCOCC1 (configuration not stated),3.4
Cc1cc2ncn(C(=O)c3c(-c4ccccc4Cl)noc3C)c2cc1C,i
O=C1NC(=O)C(CC(=O)N(Cc2ccco2)C2(C(=O)NC3CCCCC3)CCCCC2)N1 (configuration not stated),i

# Part of the list above, with each value named.
> O=C(Nc1cc(Cl)cc(Cl)c1)c1cccc(OC(F)F)c1
- H5N1 antiviral: 0.4

> Cc1nn(CCC#N)c(NC(=O)c2ccc(Cl)cc2)c1P(=O)(Nc1ccc([N+](=O)[O-])cc1)N1CCOCC1 (configuration not stated)
- H5N1 antiviral: 3.4

> N#CC1=C(N)NC(SCC(=O)Nc2ccccc2)=C(C#N)C12CCCC2
- H5N1 antiviral: i

> O=C1NC(=O)C(CC(=O)N(Cc2ccco2)C2(C(=O)NC3CCCCC3)CCCCC2)N1 (configuration not stated)
- H5N1 antiviral: i

# The listing continues:
SMILES,H5N1 antiviral
COc1ccc2c(c1)S/C(=C\C(=O)c1ccncc1)N2C,0.9
O=C1c2ccccc2C(=O)N1CCCc1nc(-c2ccncc2)no1,i
CCOc1ccccc1NC(=O)/C=C/C(N)=O,i
COc1ccc(-n2c(-c3ccco3)n[nH]c2=S)cc1,i
O=C(NC(=Nc1ccccc1)N1CCOCC1)Nc1ccccc1,i
CN1CCN(C(=S)Nc2ccccc2Cl)CC1,0.3
COc1ccccc1OCC(O)Cn1c(Br)nc2c1c(=O)[nH]c(=O)n2C (configuration not stated),1.9
CCCCC(=O)Nc1c(C)cc(C)cc1Cl,1.1
c1ccc2c(c1)CNc1ccccc1C2,i
Cc1ccc(C)c2[nH]c(=O)c(CCNC(=O)c3cc4ccccc4o3)cc12,i

# An excerpt from further up, for reference:
SMILES,H5N1 antiviral
O=C1c2ccccc2C(=O)N1CCCc1nc(-c2ccncc2)no1,i
CCOc1ccccc1NC(=O)/C=C/C(N)=O,i
COc1ccc(-n2c(-c3ccco3)n[nH]c2=S)cc1,i
O=C(NC(=Nc1ccccc1)N1CCOCC1)Nc1ccccc1,i
CN1CCN(C(=S)Nc2ccccc2Cl)CC1,0.3
COc1ccccc1OCC(O)Cn1c(Br)nc2c1c(=O)[nH]c(=O)n2C (configuration not stated),1.9
CCCCC(=O)Nc1c(C)cc(C)cc1Cl,1.1

# Bioassay records deposited in PubChem BioAssay by SRMLSC.
